Screens deposited in PubChem by National Center for Advancing Translational Sciences (NCATS).
N370S GC: inhibits or activates N370S mutant glucocerebrosidase; P04062; Potency, µM (doses to about 59.4 µM), inactives show at the top dose activity change, negative = inhibition, most hits filed as inhibitors; N370S GC spleen homogenate, 4MU-glucoside fluorescence; 0.092% of 330,000 active;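 also: 0% = full enzyme activity and -100% = no enzyme basal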
TDP1 cell CPT: growth inhibition of DT40 Tdp1-/-;hTDP1 cells with camptothecin (screen for TDP1 inhibitors); 12% of 420,000 active; Potency, µM (doses to about 46.2 µM), inactives show at the top dose activity change, negative = growth inhibition, hits mostly inhibitors; chicken DT40 Tdp1-/-;hTDP1 cells + 20 nM CPT, ATP luminescence, 48 h; also: nearly all actives have a fitted effect of over 55% in size
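Chicken DT40 Tdp1-/- cells complemented with human TDP1, 400 cells/well, exposed to compounds plus 20 nM camptothecin for at least 48 h at 37 C; viability read as ATP content by CellTiter-Glo luminescence.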
Starred values were filed as active, the others as inactive; ? = inconclusive; & = joins results of further samples; [ ] = another dose, or the depositor's remark. Calls follow the shape of the dose curve; as a rule, active = well fitted curve in the direction sought with a large enough effect; inconclusive = small, poorly fitted or top-dose-only effect, or another doubt; inactive = no such curve, though single readings can be large; an effect the other way counts as inactive or inconclusive. Unless noted, % is scaled to controls: 0 for no effect and ±100 for the full control effect; potency is read from the fitted curve at half-maximal effect. A portion of the library, and most or all hits are left out here.

compound	N370S GC	TDP1 cell CPT
CCCCCC(=O)Nc1cccc(C2=NOC3(C2)C[C@@H](C(N)=O)N(C(=O)CC(c2ccccc2)c2ccccc2)C3)c1 (stereo not given in full)	-10%	23µM*
c1ccc2c(c1)nc1n2C2(N3CCOCC3)CCCC2C1N1CCOCC1 (stereo not given)	-3%	0%
COc1ccc(OC)c(CCNC(=O)Cc2ccc(NC3=NC4CS(=O)(=O)CC4S3)cc2)c1 (stereo not given)	-2%	6%
O=C(NCCc1cccs1)C1CC1	1%	4%
COc1c(O)ccc(/C=C(\C#N)c2nc3ccccc3[nH]2)c1[N+](=O)[O-]	8%	3%
COc1ccc(NC(=O)c2cc3c(s2)CCC3)cc1S(=O)(=O)N1CCOCC1	3%[12.8 µM]	-19%
CCOCC(O)CNc1ccccc1 (stereo not given)	2%	1%
O=c1[nH]c2ccccc2n1C1=CCNCC1	-15%	11%
Nc1nc(CSCCO)nc(Nc2ccccc2)n1	3%	?
N/C(=N\c1nc2ccccc2o1)NC(=O)c1ccccc1NC(=O)c1ccccc1	2%	5.2µM*
COc1ccc(C2=NN(C(N)=S)C(c3ccco3)C2)cc1 (stereo not given)	-2%	?
O=C(NCc1cn(-c2ccccc2)nc1-c1ccccc1)c1cc([N+](=O)[O-])cc([N+](=O)[O-])c1	2%	?
O=C(CSc1nnc(-c2ccccn2)n1Cc1ccco1)c1ccc(Cl)cc1	13%	16µM*
Cc1ccc(S(=O)(=O)N2CCC(NC(=O)c3cccc(F)c3)CC2)cc1	-18%	-3%
Cc1nn(Cc2ccc(Cl)cc2Cl)c(Cl)c1/C=C/C(=O)OCC(=O)NCC(F)(F)F	17%	-29%
CN(Cc1nc(Cc2ccccc2F)no1)CC1(N2CCOCC2)CCCCC1	-22%	-4%
CCOC(=O)c1[nH]c2c(c1C)C(=O)CC(c1ccc(N(C)C)cc1)C2 (stereo not given)	12%	?
CCCCCCn1nc(C(=O)OCC(=O)NC2CCS(=O)(=O)C2)c2ccccc2c1=O (stereo not given)	-16%	-14%
Nc1nnc(SCC(=O)c2ccco2)s1	-16%	-4%
Cc1ccc(C(=O)OCC(=O)Nc2cccc(S(=O)(=O)NC3=NCCCCC3)c2)c(C)c1	10%	?
CCc1nnc(NC(=O)c2cc(Cl)ccn2)s1	1%	2.9µM*
Cc1ccc(N(CC(O)CN2CCOCC2)S(=O)(=O)c2ccc([N+](=O)[O-])cc2)cc1 (stereo not given)	-18%	12%
O=C(Nc1cccc(F)c1)c1ccc(Br)o1	2%[89.1 µM]	2%
O=C(/C=C/c1ccccc1Cl)Nc1ccc(S(=O)(=O)Nc2ncccn2)cc1	6%	-3%
CCC1CCCCN1Cc1nc2c(c(=O)n(C)c(=O)n2C)n1CC(C)C (stereo not given)	1%	?
CCOC(=O)c1cc(C(=O)c2cc(Cl)ccc2O)coc1=N	3%	3%
O=C(O)CCC(=O)c1c[nH]c2ccccc12	0%	1%
CCCC12CN3CC(CCC)(CN(C1)C3c1ccco1)C2=O (stereo not given)	-11%	5%
O=C(NCC(c1ccco1)N1CCCC1)c1ccccc1F (stereo not given)	3%	-3%
COc1ccc(N(C(=O)c2ccco2)C(C(=O)NC2CCCC2)c2ccncc2)cc1 (stereo not given)	-4%	4%

(listing goes on)
compound	N370S GC	TDP1 cell CPT
CCS(=O)(=O)N1CCCC(C(=O)NCCN2CCC(Cc3ccccc3)CC2)C1 (stereo not given)	-10%	-26%
CSc1nnc(-c2ccccc2Cl)n1N	-1%	0%
Cn1c(CNC(=O)c2ccco2)nnc1SCCOc1ccccc1	-2%	-1%
Cc1cc(C)c2nc(-c3cccnc3)cc(C(=O)Nc3ccc(S(=O)(=O)Nc4onc(C)c4C)cc3)c2c1	-8%	9%
O=C(O)c1ccc(N2C(=O)CSC2c2cccc([N+](=O)[O-])c2)cc1 (stereo not given)	1%	8%
Cc1nn(C)c(C(=O)Nc2ccn(Cc3c(F)c(F)cc(F)c3F)n2)c1[N+](=O)[O-]	-14%	-20%
CCN1CCN(c2nc(S(=O)(=O)c3ccc(C)cc3)c(Cl)s2)CC1	-24%	-24%
CCOc1ncccc1C(=O)OCc1ccc(C(=O)OC)o1	3%	8%
NC(=O)c1cccc2c(=O)oc3ccccc3c12	4%	-9%
COc1ccc(C(=O)NCc2nnc(SC)n2Cc2ccccc2)cc1	4%	-17%
N#CCSc1nnc(-c2ccc3c(c2)OCO3)o1	6%	9%
CCCS(=O)(=O)N1CCC(C(=O)NCCCN(CC)c2cccc(C)c2)CC1	-2%	?
COc1ccc(-n2cnnc2SCc2ncc(-c3ccccc3)o2)cc1	7%	-14%
CCc1ccc(CN2CCC(C(=O)Nc3ccc(-n4nc(C)cc4C)cc3)CC2)o1	9%	?
COc1cc2ccccc2cc1C(=O)Nc1cc(C)ccn1	2%	?
Cc1nn(C)cc1NC(=O)Cn1nc(C(F)(F)F)cc1C1CC1	4%	-2%
COc1ccc(CCNCC(O)Cn2c3ccccc3c3ccccc32)cc1OC (stereo not given)	-14%	13µM*
O=C1CCCc2c1cc(-c1ccccc1)n2-c1ccc(O)cc1	-17%	?
Cc1ccc(O)c(CNn2cnnc2)c1	0%	-13%
Cc1cc(C)nc(-n2nc(C)c(Br)c2Nc2ccc(Br)cc2)n1	15%	?
CN(c1ccc(Cl)cc1)S(=O)(=O)c1nnc(NC(=O)c2ccco2)s1	-5%	?
COc1ccccc1-n1cnc2cc(NS(=O)(=O)c3ccccc3)ccc21	?	-23%
Cc1cccc2cc(C(c3nnnn3CC3CCCO3)N3CCOCC3)c(=O)[nH]c12 (stereo not given)	-2%	7%
CCOC(=O)[C@H]1[C@H]2COc3ccccc3[C@@H]2N2C(=O)c3cc(F)ccc3NC(=O)[C@@]12C	1%	-28%
Cc1ccc(NC(=O)CSc2nnc(CNC(=O)c3cccs3)o2)c(C)c1	1%	3%
CCCc1nc(SCC(=O)Nc2nnc(SCC)s2)c2c(=O)n(C)c(=O)n(C)c2n1	0%	4.1µM*
CC(=O)c1c(C)nc(-c2ccc(OCC(=O)Nc3ccc(F)cc3)cc2)n1O	-7%	-16%
C/C(CC(=O)C(F)(F)F)=N\NC(=O)/C(C#N)=C/N(C)C	3%	-16%
CCCC1OC23CCCCC2C(C#N)(C(=N)O3)C1(C#N)C#N (stereo not given)	12%	7.3µM*
O=C(CN(Cc1cccs1)C(=O)CNS(=O)(=O)c1ccc(Cl)cc1)NCC1CCCO1 (stereo not given)	3%	-2%

New compounds follow
compound	N370S GC	TDP1 cell CPT
O=C(Nc1ccccn1)C1CCN(C(=O)Nc2ccccc2)CC1	-14%	-19%
CC1(c2ccc(Cl)cc2)NC(=O)N(CC(=O)N2CCCC2)C1=O (stereo not given)	-7%	1%
Cc1ccc(C)n1C(CC(=O)O)c1ccc(C#N)cc1 (stereo not given)	2%	-24%
CCOC(=O)c1cnc(SC)nc1Nc1cccc(F)c1	-21%[2.35 µM]	-20%
S=C(Cc1cccnc1)N1CCOCC1	3%	?
O=C(Nc1cccc2ccccc12)N1CCN(Cc2ccc3c(c2)OCO3)CC1	-16%	-19%
CCOc1ccccc1NC(=O)CSc1nnc(-c2ccco2)o1	6%	?
COc1cc(OC)cc(C(=O)Nc2cccc(N3CCCC3)c2)c1	1%	?
COC(C(=O)Nc1ccnn1C1CCN(C(=O)c2ccc(C)cc2)CC1)c1ccccc1 (stereo not given)	0%	-13%
COc1ccccc1-n1c(C)c(C(=O)O)c2cc(OC)c3ccccc3c21	-10%	12%
CN(C(=O)c1cccc(NC(=O)c2cccs2)c1)c1ccccc1	-3%	-4%
O=C(Cc1ccc([N+](=O)[O-])cc1)N1N=C2CCCCC2C1(O)C(F)(F)F (stereo not given)	13%	-23%
CC1=NOC(=O)/C1=C/c1ccc(O)c(Br)c1	-2%	11%
COc1ccccc1N1CCN(C(c2cccs2)C(C)NS(=O)(=O)c2ccccc2)CC1 (stereo not given)	21%	?
COc1ccc(-c2noc(C3CCCN(C(=O)CCc4ccccc4)C3)n2)cc1 (stereo not given)	25%	18µM*
COc1ccc(NS(=O)(=O)c2ccc3c(c2)CCC(=O)N3)c(OC)c1	2%	-24%
Cc1nc2ncnn2c(C)c1CCC(=O)Oc1ccccc1	2%	4%
Cc1cccc(OCC(=O)NNC(=O)Cn2c(=O)cnc3ccccc32)c1	1%	-13%
Cc1ccc(CN(C)C(=O)CC2C(=O)NCCN2CC2CCCCC2)cc1 (stereo not given)	-13%	21%
COc1cccc(NC(=O)N2CCCCCC2)c1	1%	9%
CSc1ccc(C2Nc3ccccc3-c3cc(C)nn32)cc1 (stereo not given)	5%	-8%
COc1cccc(NC(=O)CCN2CCC(C(N)=O)CC2)c1	-3%	2%
O=C(CCc1ccccc1)Nc1ccnn1C1CCN(Cc2ccc(OCCO)cc2)CC1	-1%	7%
O=C(N=C1SC2CS(=O)(=O)CC2N1c1ccc(OC(F)(F)F)cc1)C1CC1 (stereo not given)	0%	-12%
Cc1cccc(C2Nc3ccccc3C(=O)N2CCc2ccccc2)n1 (stereo not given)	22%	?
CCOc1cc(C=C2C(=O)c3ccccc3C2=O)ccc1OCC(=O)Nc1ccc(C)cc1	-14%	?
COc1ccc(-c2noc(COc3ccc(Cl)c(C)c3)n2)cc1	2%	-11%
CC1CCC(NC(=O)CCS(=O)(=O)c2ccc3c(c2)CCN3C(=O)C2CC2)CC1 (stereo not given)	7%	-23%
Cc1cc([N+](=O)[O-])nn1CC(=O)N/N=C/c1ccc(O)cc1O	-14%	8.2µM*
COc1ccc(/C=N/NC(=O)c2cc(Br)ccc2O)cc1Cn1cc(Cl)cn1	-19%	9%

Nothing new here: 2 of the compounds above.
compound	N370S GC	TDP1 cell CPT
O=C(Nc1cccc(F)c1)c1ccc(Br)o1	2%[89.1 µM]	2%
O=C(/C=C/c1ccccc1Cl)Nc1ccc(S(=O)(=O)Nc2ncccn2)cc1	6%	-3%

Additional results follow.
compound	N370S GC	TDP1 cell CPT
Cc1oc(-c2ccccc2)cc1C(=O)NC1CCN(Cc2ccccc2)CC1	-2%	-19%
Cc1cc(C)cc(N=C2SC(CC(=O)Nc3ccccc3)C(=O)N2CCN2CCOCC2)c1 (stereo not given)	-13%	-7%
CC1CN(C(=O)c2cccs2)CCN1C(=O)c1cccs1 (stereo not given)	-5%	-8%
CCCCOc1ccc(C(=O)NCC(=O)OCC(=O)N2CCN(S(=O)(=O)c3ccc(C)cc3C)CC2)cc1	20%	3%
CC(C)(C)c1ccc(O)c(O)c1	-1%	34µM*
Nc1nonc1C(=O)NCCNS(=O)(=O)c1ccc(F)cc1	4%	1%
COc1ccc(NC(=O)CSc2nc3c([nH]c4ccccc43)c(=O)n2C)cc1	0%	0%&5%
Cc1cc(C(=O)Nc2ccccc2)c(C)o1	3%	-23%
CC(OC(=O)CCCN=C1NS(=O)(=O)c2ccccc21)C(=O)Nc1ccc(F)c(F)c1F (stereo not given)	-3%	-19%
Cc1cccc(C)c1-n1c(C)nn(CC#N)c1=O	-28%	15%
COc1cc(/C=N/NC(=O)Cn2nc([N+](=O)[O-])cc2C)cc(Br)c1OCc1ccccc1	-4%	26µM*
CCN(CC)C(=O)c1cc(Cl)ccn1	-12%	-24%
CCn1c(CC(=O)Nc2ccc(C)cc2)nnc1SCC(=O)NCCc1ccccc1	1%	?
COc1ccc(CCNC(=O)C2CCC(=O)N2S(=O)(=O)c2ccc(C)cc2)cc1 (stereo not given)	4%	1%
[O-][n+]1ccccc1SCc1ccccc1	-3%	-9%
O=C(CNc1cccc(S(=O)(=O)N2CCOCC2)c1)Nc1ccccc1F	-15%	-9%
CNC(=O)NC(=O)C(C)OC(=O)c1c2c(nc3ccccc13)/C(=C/c1cccs1)CC2 (stereo not given)	10%	21µM*
CC(C)Cn1c(=O)oc2ccccc21	-1%	8%
Cc1cc(NC(=O)CSc2nc3c(cc2C#N)CCCC3)no1	4%	0%

Given with each value named: entries from further up
canonical_smiles: COc1ccc(-c2noc(COc3ccc(Cl)c(C)c3)n2)cc1
  N370S GC: 2%
  TDP1 cell CPT: -11%

canonical_smiles: CC1CCC(NC(=O)CCS(=O)(=O)c2ccc3c(c2)CCN3C(=O)C2CC2)CC1 (stereo not given)
  N370S GC: 7%
  TDP1 cell CPT: -23%

canonical_smiles: Cc1cc([N+](=O)[O-])nn1CC(=O)N/N=C/c1ccc(O)cc1O
  N370S GC: -14%
  TDP1 cell CPT: 8.2µM*

canonical_smiles: COc1ccc(/C=N/NC(=O)c2cc(Br)ccc2O)cc1Cn1cc(Cl)cn1
  N370S GC: -19%
  TDP1 cell CPT: 9%
